# Compound activity as filed in PubChem BioAssay.
# Vaccinia pol inh – vaccinia E9 polymerase processive synthesis inhibitors, primary screen, biochemical, absorbance; Vaccinia virus DNA polymerase (E9) processive complex; in vitro processive DNA synthesis, absorbance read-out; stronger effect = lower value; some inactives read as strong as hits; normalized absorbance, % (no concentration beside the values); 46,000 tested, 0.94% active; AID 493162, 2011;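 active means replicate mean up to 90% and picked by the depositor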;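 further: 100% = median of the test wells of a plate; 100 nL library stock went into each well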
# The depositor's hits bear a star; ! = not active in a repeat.
nr | smiles | Vaccinia pol inh
1 | O=C(CC1SC(=O)N(CN2CCOCC2)C1=O)Nc1cccc(O)c1 (stereo unspecified) | 99.8
2 | COC(=O)c1ccn(C(=O)c2ccnn2C)n1 | 99.7
3 | Cc1cccc(CCNC(=O)C2CCN(S(=O)(=O)c3ccc4[nH]c(=O)ccc4c3)CC2)c1 | 84.6
4 | CCCC(=O)Oc1ccc(N(C(=O)CCC)S(=O)(=O)c2cccs2)cc1 | 96.3
5 | CCOC(=O)c1c(CC(C#N)(c2ccccc2)c2ccccc2)oc2ccc(OC)cc12 | 100.2
6 | Cc1cccc(OCCCn2c(=O)sc3ccccc32)c1 | 94.4
7 | CNc1cc(CS(=O)c2ccccc2)nc(-c2ccccc2)n1 (stereo unspecified) | 109.0
8 | c1ccc(CNn2cnnc2)cc1 | 105.1
9 | Cc1ccc(NC(=O)CSC2=NC3(CCCCC3)Nc3ccccc32)cc1 | 100.0
10 | Cc1[nH][nH]c(=O)c1C(c1ccncc1)C(C#N)C#N (stereo unspecified) | 100.2
11 | COc1cccc(OC)c1C(=O)Oc1cccc2ccc(C)nc12 | 98.0
12 | Oc1ccc(-c2nc(-c3ccccc3)c(-c3ccc(O)cc3)[nH]2)cc1 | 97.2
13 | CC1=CC(C)(C)N(C(=O)Nc2ccc(C)cc2)c2ccccc21 | 99.8
14 | CCN1CCN(c2nnc(-c3ccccc3)c3ccccc23)CC1 | 101.5
15 | O=C(CC(O)(c1ccccc1)C(F)(F)F)c1ccccc1 (stereo unspecified) | 99.7
16 | CC1[C@H](C)OC(=O)CC(O)CC(O)CC(O)CCC(O)C(O)C[C@]2(O)CC(O)C(C(=O)O)C(CC(OC3O[C@H](C)[C@@H](O)[C@H](N)[C@@H]3O)/C=C/C=C/C=C/C=C/CC/C=C/C=C/[C@H](C)[C@H]1O)O2 (stereo partly specified) | 100.5
17 | O=C(O)CCC(=O)c1ccc(I)cc1 | 85.0
18 | COC(=O)c1ccc(CSc2nnc(-c3c[nH]c4ccccc34)n2C)o1 | 103.7
19 | CCC1=C/C(=C/N(C)c2ccccc2)C(=O)S1 | 100.5
20 | Cn1c(C(C#N)C(=O)c2cccs2)nc2ccccc21 (stereo unspecified) | 105.3
21 | CC(C)(C)C1CCC(C(=O)OCC(=O)Nc2ccc(C(N)=O)cc2)CC1 (stereo unspecified) | 92.9
22 | CC(CCC(=O)O)C1CCC2C3CCC4C[C@H](O)CCC4(C)C3CC(=O)C12C (stereo partly specified) | 95.1
23 | COC(=O)c1cc(NS(=O)(=O)Cc2ccccc2)cc(C(=O)OC)c1 | 99.8
24 | O=S(=O)(c1cccc2nonc12)N1CCCN(c2nccc(C(F)(F)F)n2)CC1 | 98.7
25 | COC(=O)c1cn(NC(=O)CCC2CCCC2)c(=O)c2ccccc12 | 105.0
26 | O=C(OCC(=O)N1CCCc2ccccc21)c1n[nH]c2ccccc12 | 102.4
27 | CCn1c(CCCNC(C)=O)nc2ccccc21 | 96.4
28 | Cc1ccc(C(C)C)c(OCC(O)CN2CCN(C)CC2)c1 (stereo unspecified) | 96.1
29 | Cc1noc(-c2ccccc2)c1NC(=O)N1CCN(C(c2ccccc2)c2ccccc2)CC1 | 102.7
30 | CC(c1ccccc1)n1cncc1C(=O)O (stereo unspecified) | 97.1
31 | CC(=O)Nc1cc(N)nnc1Cl | 99.3
32 | O=C(CN1C(=O)c2ccccc2S1(=O)=O)N1CCCC1 | 105.9
33 | COc1ccc(/C=C/C(=O)Nc2nc3ccc(S(C)(=O)=O)cc3s2)cc1Br | 100.0
34 | CCn1c(O)c(C=Nc2ccccc2)oc1=S | 98.5
35 | COc1ccc(/C=N/c2oc(C)c(C)c2C#N)c(OC)c1 | 100.6
36 | CC1CC(C)(C)CC2(C1)NC(=S)N(c1nc3ccccc3s1)N2 (stereo unspecified) | 100.2
37 | Cc1ccc(/C=C2/SC(=S)N(CC(=O)Nc3nccs3)C2=O)cc1 | 98.6
38 | COc1cc(SC)ccc1C(=O)NCCCn1ccnc1 | 97.0
39 | CCCN1CC=C2C(C#N)(C#N)C(N)=C(C)[C@H](c3ccc(C(=O)OC)cc3)[C@@]2(C)C1 | 93.8
40 | O=C(c1c[nH]c2ccccc12)N1CCOCC1 | 127.5
41 | Cc1ccccc1OCc1nnc(-c2ccccc2)o1 | 109.6
42 | O=c1c2ccccc2c2ccccc2c(=O)n1Cc1ccco1 | 99.8
43 | O=C(Nc1cccc(-c2nc3ccccc3s2)c1)C1=COCCO1 | 71.7
44 | CN1C(=O)CSc2ccc(NC(=O)NCc3cccnc3)cc21 | 90.1
45 | CCc1cc2c(=O)oc(-c3ccc(Br)cc3)nc2s1 | 100.3
46 | CCc1ccccc1NC(=O)C(CC)n1nc(C)n2c(cc3cc(C)ccc32)c1=O (stereo unspecified) | 97.9
47 | c1cncc(CNc2ncnc3sc4c(c23)CCCC4)c1 | 99.6
48 | CC1CCCC(NC(=O)C2CCC(Cn3c(=O)[nH]c4ccccc4c3=O)CC2)C1C (stereo unspecified) | 102.2
49 | CC(CCc1ccccc1)NC(C)C(O)c1ccc(O)cc1 (stereo unspecified) | 100.1
50 | COc1ccc(/C=C2\SC(=O)NC2=O)cc1 | 96.9
51 | CSC1=NCCN1C(=O)Cc1cccs1 | 103.5
52 | CC(=O)Nc1sc2c(c1C(N)=O)CC(C)CC2 (stereo unspecified) | 99.6
53 | CCN1CCCC1CNC(=O)C1c2ccccc2C(=O)N(CCOC)C1c1ccc(F)cc1 (stereo unspecified) | 101.2
54 | CCc1cc(C(=O)OC)c(NC(=O)/C=C/C(=O)O)s1 | 92.7
55 | N#C/C(=C(\O)c1ccccc1)c1nc2ccccc2c(=O)[nH]1 | 99.3
56 | O=C(NC1CC1)c1ccc2c(c1)N(Cc1ccccc1)C(=O)c1ccccc1S2 | 94.6
57 | CCCc1cc(=O)oc2c(C)c(OC(C)C(=O)O)ccc12 (stereo unspecified) | 99.9
58 | Cc1nc2cc(-c3ccccc3)nn2c(C)c1CC(=O)NC1CCCC1 | 103.4
59 | CC(N)(Cc1ccc2c(c1)OCO2)C(=O)O (stereo unspecified) | 101.2
60 | O=c1[nH]cnc2c1c(-c1ccccc1)cn2-c1ccc(F)cc1 | 116.0

# The listing continues.
nr | smiles | Vaccinia pol inh
61 | CC1=C(C(=O)N(C)C2CCCCC2)C2(CCC(C)CC2)OC1=O (stereo unspecified) | 77.5
62 | Clc1ss/c(=N\c2ccccn2)c1Cl | 100.0
63 | CC(C)CCn1c(=O)c2sccc2n2c(CCCC(=O)O)nnc12 | 95.1
64 | O=C(O)C(CS(=O)(=O)Cc1ccccc1)N1Cc2ccccc2C1=O (stereo unspecified) | 107.3
65 | CCOC(=O)c1c(/N=C/c2ccc(N(C)C)cc2)sc(C)c1C | 100.0
66 | COc1ccc(Nc2ncn[nH]2)cc1 | 96.0
67 | O=C(Oc1ccc2ccccc2c1C1SCCS1)c1cccs1 | 99.2
68 | CC(=O)OC1C(OC(C)=O)N(C)C(=O)N1C (stereo unspecified) | 100.2
69 | O=C(CSc1nc2ccccc2s1)N1CCCC1 | 100.5
70 | CCOC(=O)c1nc(NCc2ccccc2)c2ccccc2n1 | 99.7
71 | CN(CC(=O)O)S(=O)(=O)c1ccc2oc3ccccc3c2c1 | 97.4
72 | Clc1ccc(CSC(Cn2ccnc2)c2ccc(Cl)cc2Cl)cc1 (stereo unspecified) | 99.9
73 | O=C(c1cn(-c2ccc(F)cc2F)c(=O)c2ccccc12)N1CCN(c2ccccc2)CC1 | 100.0
74 | CC[C@H]1OC(=O)[C@H](C)[C@@H](O[C@H]2C[C@@](C)(OC)[C@@H](O)[C@H](C)O2)[C@H](C)[C@@H](O[C@@H]2O[C@H](C)C[C@H](N(C)C)[C@H]2O)[C@](C)(O)C[C@@H](C)C(=O)[C@H](C)[C@@H](O)[C@]1(C)O | 22.6*!
75 | CCc1cc(=O)oc2cc(C)c3c(-c4ccccc4)coc3c12 | 98.7
76 | CC1OCN(c2ccc(OC(F)(F)F)cc2)Cn2c1nc1ccc(Cl)cc12 (stereo unspecified) | 96.4
77 | O=C(CSc1nc2ccc(N3C(=O)c4ccccc4C3=O)cc2s1)c1ccccc1 | 97.6
78 | Cc1cc(NC(=O)C2CC2)n(-c2ccccc2C(F)(F)F)n1 | 96.9
79 | CCOC(=O)CN=C(c1ccccc1)c1ccccc1 | 100.8
80 | Cc1nn2c(=O)/c(=C/c3ccccc3)sc2nc1=O | 99.3
81 | COC(=O)c1scc(C)c1NS(=O)(=O)c1ccc2c(c1)CCO2 | 95.5
82 | C/C(CC(c1ccccc1)c1c(O)c2ccccc2oc1=O)=N/O (stereo unspecified) | 95.8
83 | Cc1cccc(C)c1NC(=O)NC1CCc2ccccc21 (stereo unspecified) | 91.4
84 | CNC(=O)c1cc2ccccc2oc1=O | 101.9
85 | CC1C(c2ccccc2)CC(C(=O)O)C1(C)C (stereo unspecified) | 96.9
86 | CCc1ccc2oc(-c3cc(N)cc(C)c3O)nc2c1 | 102.1
87 | N#Cc1c(N)nc(SC2CCCCC2=O)c(C#N)c1-c1ccc(O)cc1 (stereo unspecified) | 99.9
88 | CCSc1nc2c(c(=O)[nH]1)C(C(C)C)C(C#N)=C(N)O2 (stereo unspecified) | 100.0
89 | COC(=O)c1ccc(OCC(O)CN2CC(C)CC(C)C2)cc1 (stereo unspecified) | 101.1
90 | COc1ccc(C2NC(CC(C)C)(C(=O)O)C3C(=O)N(c4ccccc4OC)C(=O)C23)cc1 (stereo unspecified) | 99.3
91 | COc1cc(C(F)(F)F)nc2ccc(C#CCOC(=O)c3ccccc3)cc12 | 104.5
92 | CC(C)(C)c1ccc(-c2noc(-c3ccc4c(c3)CCO4)n2)cc1 | 86.1
93 | CCCCc1c(O)cc(-c2ccccc2)n(Cc2ccccc2)c1=O | 95.9
94 | COc1cc(-c2cc(C#N)on2)ccc1OCc1ccccc1 | 99.4
95 | O=C(COc1cccc2c1CCN(Cc1ccccc1)C2=O)N1CCCCC1 | 101.0
96 | COC(=O)CCC(=O)Nc1nc(-c2ccccc2)cs1 | 97.3
97 | CCOc1ccc(C(=O)NC2CCCCC2)cc1 | 98.1
98 | CCn1cc(C(=O)NCC(OC)OC)c(=O)c2cc(S(=O)(=O)N3CCCC3)ccc21 | 103.2
99 | CC(C)c1cc(NC(C)c2ccccc2)n2c(nc3ccccc32)c1C#N (stereo unspecified) | 99.5
100 | Cc1ccc(N=C2NC(=O)/C(=C3\C(=O)N(C)c4ccccc43)S2)cc1C | 101.4
101 | Cc1ccc(NC(=O)CCc2nnc3ccc(NC4CCCC4)nn23)cc1 | 94.1
102 | Cc1cccc(Nc2nc(-c3ccc(F)cc3)cs2)n1 | 96.7
103 | CCOC(=O)C1(O)CC(C)=NN1C(=O)c1cccc(Cl)c1 (stereo unspecified) | 96.9
104 | CCCC(=O)Nc1nc2ccc(S(=O)(=O)N(C)C)cc2s1 | 77.4
105 | Cc1ccc2cc(CCNC(=O)c3ccc(S(=O)(=O)N(C)C)cc3)c(=O)[nH]c2c1 | 97.5
106 | Cc1cc(NC(=O)NC(=O)c2cccs2)n[nH]1 | 100.2
107 | CC(C)NC(=O)CSc1cc(-c2cccnc2)c2c(c1C#N)CCCC2 | 98.3
108 | CCC(Sc1nc(-c2ccccc2)c(-c2ccccc2)[nH]1)C(=O)O (stereo unspecified) | 97.8
109 | CCOC(=O)/C(=N\O)C1=CSC2=NNC(C)(C)N12 | 104.0
110 | COC(=O)CNC(=O)c1cc2c(=O)[nH]c3ccccc3c2s1 | 97.1
111 | Cc1nc(SCCO)c2c3c(sc2n1)CCC3 | 97.3
112 | COc1ccc(-c2[nH]c3ccccc3c2SCCNC(C)=O)cc1 | 99.6
113 | CC1(C)Cc2nc3sc4c(NCC5CCCO5)ncnc4c3cc2CO1 (stereo unspecified) | 100.1
114 | CC1CC(OCC(O)CN2CCN(c3cccc(C(F)(F)F)c3)CC2)CC(C)(C)C1 (stereo unspecified) | 97.9
115 | CS(=O)(=O)c1cccc(Cl)n1 | 95.9
116 | Nc1ccc(S(=O)(=O)C(F)(F)F)cc1 | 100.4
117 | COc1ccc(-n2cccc2CO)cc1 | 97.5
118 | Cc1ccc(N(CC#N)C(=O)Cn2cc[n+](C)c2)cc1 | 97.7
119 | CNc1nc(OC)cc(OC)n1 | 96.1
120 | CCN(CC)CC(=O)OC1CC2CCC1(C)C2(C)C (stereo unspecified) | 94.7

# New compounds follow
nr | smiles | Vaccinia pol inh
121 | NC(=O)Cn1c(=O)n(CCC(=O)NCCc2ccc(Cl)cc2)c(=O)c2sccc21 | 80.3
122 | O=C(NN1C(=O)S/C(=C/c2ccc(Cl)cc2)C1=S)c1ccccc1Cl | 99.5
123 | CCCCC[C@H](O)/C=C/[C@@H]1[C@@H](CCCCCCC(=O)O)[C@@H](O)C[C@H]1O | 100.4
124 | C=CCN1C(=O)C(CC(=O)Nc2ccccc2)N(Cc2ccccn2)C1=S (stereo unspecified) | 89.7
125 | CCc1ccc2[nH]c(C(=O)NCc3ccccc3)cc2c1 | 105.2
126 | Cc1cc(C)nc(Sc2c(C)n[nH]c2C)n1 | 106.3
127 | CS(=O)(=O)N(Cc1ccc(C(=O)O)cc1)c1cccc(Cl)c1Cl | 97.6
128 | Nc1c2c(nc3ccn(-c4ccccc4)c(=O)c13)CCCCC2 | 121.1
129 | O=C(NO)c1cc(-c2ccccc2)nn1-c1ccccc1 | 99.9
130 | Cc1ccc(N(CC(=O)N2CCCCCC2)S(=O)(=O)c2c(C)noc2C)cc1 | 100.0

# An excerpt of these results, field by field:
[125] CCc1ccc2[nH]c(C(=O)NCc3ccccc3)cc2c1
  Vaccinia pol inh = 105.2

[122] O=C(NN1C(=O)S/C(=C/c2ccc(Cl)cc2)C1=S)c1ccccc1Cl
  Vaccinia pol inh = 99.5

[121] NC(=O)Cn1c(=O)n(CCC(=O)NCCc2ccc(Cl)cc2)c(=O)c2sccc21
  Vaccinia pol inh = 80.3

[128] Nc1c2c(nc3ccn(-c4ccccc4)c(=O)c13)CCCCC2
  Vaccinia pol inh = 121.1

# Reformatted: results already given
114. CC1CC(OCC(O)CN2CCN(c3cccc(C(F)(F)F)c3)CC2)CC(C)(C)C1 (stereo unspecified)
- Vaccinia pol inh: 97.9

115. CS(=O)(=O)c1cccc(Cl)n1
- Vaccinia pol inh: 95.9

116. Nc1ccc(S(=O)(=O)C(F)(F)F)cc1
- Vaccinia pol inh: 100.4

117. COc1ccc(-n2cccc2CO)cc1
- Vaccinia pol inh: 97.5

# An excerpt, so the mix of outcomes need not match the whole.
